Compound activity (PubChem)
UCH37 DUB inh – inhibitors of human UCH37 deubiquitinase, primary screen, biochemical, Ub-AMC cleavage, fluorescence. Ubiquitin carboxyl-terminal hydrolase isozyme L5 (Homo sapiens), Q9Y5K5. 330,000 compounds, 0.33% hits. inhibition, % (no concentration beside the values). purified proteasome/UCH37;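 active = mean of two replicates above 20%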;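 note: 0% = compound-free wells with enzyme and 100% = wells lacking proteasome; stock transfer was 100 nL into about 20 µL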
Target sequence (Q9Y5K5 whole entry, looked up): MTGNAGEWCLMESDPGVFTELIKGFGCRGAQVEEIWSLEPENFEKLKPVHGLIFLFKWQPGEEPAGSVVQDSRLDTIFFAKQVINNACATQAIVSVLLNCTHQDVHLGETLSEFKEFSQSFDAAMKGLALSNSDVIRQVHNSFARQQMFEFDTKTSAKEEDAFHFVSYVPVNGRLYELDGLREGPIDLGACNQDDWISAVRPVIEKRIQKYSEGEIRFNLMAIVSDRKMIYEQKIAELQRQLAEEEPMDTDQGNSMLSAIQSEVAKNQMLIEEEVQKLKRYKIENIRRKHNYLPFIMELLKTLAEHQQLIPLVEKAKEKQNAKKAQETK
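Schedule: 30 min plus 25 min, room temperature / Material: human UCH37 within purified proteasomes / Technique: AMC fluorescence intensity at 355/460 nm / Buffer or medium: pH 7.4 Tris-HCl (50 mM) with ovalbumin, ATP-MgCl2, DTT / Controls: wells without proteasome as full block, compound-free enzyme plus substrate as uninhibited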
RanGTP-Imp inh – inhibitors of RanGTP-importin-beta interaction, primary screen, biochemical, FRET, CFP-Ran, YFP-importin-beta, homogeneous | Ran GTPase (GTP-bound) - importin-beta complex | cell-free CFP-Ran/YFP-importin-beta FRET ratio | inhibition, % (no concentration beside the values) | 300,000 compounds, 1.1% hits | AID 2216, 2009;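 active = most replicates above 15%; inconclusive = exactly half above 15%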;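 note: 0% = DMSO wells and 100% = Ran loaded with GDP instead of GTP; wells of about 40 µL received 100 nL stock; the first replicate is given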
MLL AF4-AF9 inh – inhibitors of AF4 peptide binding to AF9, primary screen, biochemical, AlphaScreen, biotin-AF4 peptide, FLAG-AF9, single point; inhibition, % at 10 µM; 350,000 compounds, 0.47% hits; Protein AF-9 (Homo sapiens), P42568;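 active = every replicate reaching a set inhibition limit, whatever the replicate mean, cut at about 25% in these data; inconclusive = mean inhibition reaches that limit but some replicates miss it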;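 note: 0% = plate neutral control median and 100% = total signal loss; the record names both 10 and 1 µM as test concentration; the first replicate is given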
Target sequence (P42568 whole entry, looked up): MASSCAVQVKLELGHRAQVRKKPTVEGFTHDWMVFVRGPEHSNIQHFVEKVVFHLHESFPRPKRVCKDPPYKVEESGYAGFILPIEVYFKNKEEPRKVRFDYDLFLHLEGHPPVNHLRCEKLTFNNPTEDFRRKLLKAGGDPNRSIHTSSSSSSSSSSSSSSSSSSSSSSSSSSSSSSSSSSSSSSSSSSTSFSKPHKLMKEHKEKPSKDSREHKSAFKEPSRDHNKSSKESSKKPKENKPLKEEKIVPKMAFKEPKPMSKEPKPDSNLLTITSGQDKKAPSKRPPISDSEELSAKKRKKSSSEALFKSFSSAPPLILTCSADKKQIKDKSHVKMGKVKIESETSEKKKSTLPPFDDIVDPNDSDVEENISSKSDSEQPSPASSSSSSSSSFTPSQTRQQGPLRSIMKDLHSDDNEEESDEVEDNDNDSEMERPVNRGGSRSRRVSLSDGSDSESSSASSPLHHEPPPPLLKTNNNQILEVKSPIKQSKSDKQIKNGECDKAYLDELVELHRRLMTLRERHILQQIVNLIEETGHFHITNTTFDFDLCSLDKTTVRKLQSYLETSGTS
FGF22 binding – binders of human FGF22 protein, primary screen, FGF22 synaptogenesis inhibitor project, biophysical, thermal shift, single point | AID 651658, 2012 | recombinant FGF22 thermal shift, SYPRO orange fluorescence; percent of sucrose octasulfate shift, DMSO zero | calls only at 9.99 µM | 340,000 compounds, 1.5% hits;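 active = melting point raised past a set limit in the mean and every replicate; inconclusive = no clear call; three in four hits are not shown here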
Target sequence (Q9HCT0 whole entry, looked up): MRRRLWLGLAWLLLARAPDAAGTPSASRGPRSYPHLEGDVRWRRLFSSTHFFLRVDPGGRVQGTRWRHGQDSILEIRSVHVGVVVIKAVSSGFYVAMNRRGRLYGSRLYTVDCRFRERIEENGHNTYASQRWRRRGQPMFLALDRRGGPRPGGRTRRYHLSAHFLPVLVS
Vif TR-FRET – inhibitors of Vif binding to APOBEC3G peptide, primary screen, biochemical, TR-FRET, GST-Vif 1-94, biotin-A3G peptide, dose response retest (AID 1117319) | Virion infectivity factor (Human immunodeficiency virus type 1 group M subtype B (isolate … | TR-FRET GST-Vif / biotin-A3G peptide binding; higher % means a stronger effect; test concentration not given here; strong numbers were not always called active | inhibition, %; hits with a dose series show IC50 in µM | 260,000 compounds, 0.57% hits;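 active = above the screen mean plus three standard deviations and confirmed in dose response; inconclusive = results disagree or hit not tested in dose response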;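 note: Vif residues 1-94 fused to GST binding biotinylated APOBEC3G peptide 110-148; 0% = full assay without inhibitor and 100% = GST in place of GST-Vif; retest series ran down from 100 µM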
HNF4A DNA FP – change in binding of human HNF4A to DNA, primary screen, biochemical, fluorescence polarization, FITC-DNA | 1 h | activity change, % at 10 µM | Hepatocyte nuclear factor 4-alpha (Homo sapiens), P41235 | 360,000 compounds, 0.3% hits; in the data active = activity change above about 30%, passing the limit was not always enough;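 note: controls were the assay level and a saturating level of protein; the project sought stronger binding though the title names inhibitors; some compounds called inactive have numbers as strong as hits; positive values seem to mean higher polarization but the record does not say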
E coli growth – E. coli growth inhibition, primary screen, OD600; Escherichia coli growth, 23 h; hits give low values; OD600 absorbance (test concentration not listed); 330,000 compounds, 0.21% hits;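 active = OD600 absorbance below the run mean of sample wells minus 3.6 SD, in any replicate, cut at about 0.56 in these data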;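 note: stock transfer was 300 nL into about 60 µL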
Active calls of the source: *; i = inactive; ? = inconclusive; . = no result given; & = joins results of further samples. Some of the compounds tested; the hit share may differ from the screen's.

SMILES	UCH37 DUB inh	RanGTP-Imp inh	MLL AF4-AF9 inh	FGF22 binding	Vif TR-FRET	HNF4A DNA FP	E coli growth
OC1(c2ccccn2)COc2ccccc2O1 (stereo unspecified)	0.7	-0.4	-4.0	i	22%	7.9	0.71
COc1cccc(C(=O)NC2CC3CCCC(C2)N3CC(=O)Nc2ccccc2)c1 (stereo unspecified)	3.2	?	.	.	-1%	0.4	0.71
O=C(COC(=O)CSc1ccc2ccccc2c1)Nc1ccccc1OC(F)F	4.0	4.2	-0.8	i	-6%	-1.3	0.7
Cc1ccc(NCC(=O)N/N=C/c2ccncc2)cc1	.	1.2	-0.1	i	3%	3.5	.
CC(C)C(=O)N1CCN(c2ccccc2NC(=O)c2ccco2)CC1	0.2	4.1	-0.5	i	.	-0.3	0.65
COc1ccc(CCNC(=O)CN(c2cc(OC)ccc2OC)S(=O)(=O)c2ccccc2)cc1	2.7	2.4	-0.9	i	4%	-1.9	0.67
Cc1nn(C(C)C)c(C)c1[C@@H]1C[C@H]2CN(Cc3cccc(Cl)c3)C(=O)[C@]23CCCN13	-1.7	-0.4	8.0	i	-2%	12	0.65
Cc1cc2c(c(=O)n1Cc1ccco1)C(c1ccccc1)C(C#N)=C(N)O2 (stereo unspecified)	4.3	0.9	.	.	2%	-5.6	0.74
CC(C)CC1NC(=O)N(CC(=O)Nc2ccc(OC(F)F)cc2)C1=O (stereo unspecified)	1.8	.	-24	i	6%	0.0	0.61
Cc1cccc(Cn2c(C)nc3c(N)c(C)c(C)cc32)c1	-0.1	-5.5	4.8	.	12%	1.0	0.65
CC(=O)C12CCCCC1CC1[C@@H]3CC(C)C4=CC(=O)CC[C@]4(C)C3CC[C@@]12C (stereo partly specified)	2.4	0.5	-0.6	i	2%	4.1	0.65
Nc1ccc(C(=O)c2cccs2)cc1	.	-1.2	.	.	-6%	1.1	.
c1ccc(-c2nnc(CN3CCCCC3)o2)cc1	3.1	-1.5	-0.4	i	5%	2.5	0.63
O=C(Nc1ccc(N2CCOCC2)cc1)c1cccc2c(-c3ccc(F)c(F)c3)coc12	.	.	0.2	i	.	-3.9	.
CC(=O)NC(CCS(C)(=O)=O)C(=O)Nc1c(C)cccc1C (stereo unspecified)	1.7	0.4	-9.3	i	-2%	-0.2	0.79
Cn1cccc1C(=O)OCC(=O)Nc1cccc(S(=O)(=O)N2CCOCC2)c1	0.9	-9.3	-7.2	i	5%	2.3	0.7
CC(C)(C)NC(=O)CN(C(=O)CNS(=O)(=O)c1ccccc1)c1ccc2c(c1)OCCO2	1.3	-2.5	.	.	18%	-0.3	0.69
COc1cc(C(=O)NCc2nnc(SCC(=O)N3CCc4ccccc43)o2)cc(OC)c1OC	4.5	4.3	.	.	-3%	-0.8	0.69
CCN(C[C@H]1N[C@@](CC)(C(=O)OC)[C@H]2C(=O)N(C)C(=O)[C@@H]12)C(=O)Nc1ccc(F)cc1	3.2	.	0.8	i	-4%	3.6	0.66
COc1ccc(CCNC(=O)COc2ccc(S(=O)(=O)N3CCCC3)cc2)cc1	-0.7	-1.5	1.4	i	-4%	0.6	0.64
CCOC(=O)N1CCN(C(=O)c2ccc(C)c(S(=O)(=O)Nc3ccccc3)c2)CC1	2.7	8.0	.	.	1%	-3.0	0.75
COc1cc(-c2cc(C(=O)O)c3cc4ccccc4cc3n2)cc(OC)c1OC	.	.	-0.3	i	-1%	-4.0	.
COc1ccc(/C=N/NC(=S)SC)cc1OC	.	-1.0	3.6	i	16%	3.2	.
COC(=O)CCCSc1nccn1-c1ccccc1	1.0	1.2	-1.2	i	7%	-2.1	0.64
O=C(COC(=O)c1cc(Br)ccc1O)Nc1cc(S(=O)(=O)N2CCCC2)ccc1Cl	-0.7	?	-2.8	i	-7%	2.3	0.68

More results follow:
SMILES	UCH37 DUB inh	RanGTP-Imp inh	MLL AF4-AF9 inh	FGF22 binding	Vif TR-FRET	HNF4A DNA FP	E coli growth
O=C(NCCCCNC(=O)c1ccccc1F)c1ccccc1F	2.3	-1.0	2.2	i	.	-3.6	0.71
CC(C)c1nnc(NC(=O)CCC(=O)N2CCC(Cc3ccccc3)CC2)s1	2.5	-0.9	0.9	i	.	3.1	0.69
O=C1OC(Cc2ccncc2)C(O)=C1C1=NCCCN1 (stereo unspecified)	3.7	-5.1	.	.	32%	-3.2	0.65
CCCn1ncc(CN2CCN(CCc3ccccc3)C(CCO)C2)c1C (stereo unspecified)	0.6	-4.5	2.6	i	31%	0.8	0.67
CC(=O)c1cc(-c2ccccc2)n(CC(=O)NC(C)(C)C)c1C	1.4	-0.5	-2.2	i	-1%	-1.7	0.7
COc1ccc(CNC(=O)CCCCCn2c(SCC#N)nc3cc4c(cc3c2=O)OCO4)cc1	0.8	2.0	.	.	-6%	-2.5	0.72
c1ccc(Cn2nnc3c(NCc4ccc5c(c4)OCO5)ncnc32)cc1	2.6	4.8	-5.4	i	22%	2.1	0.72
CCCCC(=O)Nc1ccc(C(=O)Nc2ccc(OC)cc2[N+](=O)[O-])cc1	1.9	-84	-2.6	i	.	95	0.66
O=C(NCCS(=O)(=O)NCc1ccc(F)cc1)c1ccc2c(c1)OCO2	3.4	4.0	8.0	i	1%	-0.6	0.69
C=C1CCC(N(O)c2cc(C)on2)C(=C)CCC2C1CC2(C)C (stereo unspecified)	-5.6	.	2.6	i	.	0.9	0.71
CCOC(=O)N1CCN(C(=O)c2ccc(N(Cc3ccccc3)S(C)(=O)=O)cc2)CC1	1.0	-0.3	.	.	0%	-2.5	0.69
Cc1nnc(CN(C)Cc2cn[nH]c2-c2ccc(-c3ccccc3)cc2)o1	0.7	2.3	7.6	i	-1%	-2.1	0.72
CC1CC(C)CN(S(=O)(=O)c2ccc(C(=O)NCc3ccc4c(c3)OCO4)cc2)C1 (stereo unspecified)	1.2	-0.6	.	.	-6%	2.2	0.74
Nc1ccc2c(c1)OC1(CCCC1)O2	-0.5	4.8	9.1	i	24%	0.5	0.73
Cc1ccc(NC(=O)CN(C)C(=O)COC(=O)C(C)(C)Oc2ccc(Cl)cc2)cc1	2.1	-2.5	-0.1	i	.	-15	0.65
Cc1nnc(SCC(=O)N(C)c2ccccc2)n1-n1cccc1	3.3	2.5	-5.1	i	4%	0.7	0.68
Nc1nc(SCC(=O)Nc2cccc(Oc3ccccc3)c2)n[nH]1	1.9	3.3	-1.8	i	.	0.0	0.66
CC(=O)C1=CCC(c2ccc(Cl)cc2)N(S(=O)(=O)c2ccccc2C)C1 (stereo unspecified)	.	.	-1.1	i	.	-0.3	.
CN(C)S(=O)(=O)N(CC(=O)NCCSCc1ccccc1)c1ccccc1	0.5	0.2	-17	i	7%	6.2	0.66
Nc1ncnc2c1nc(SCCO)n2Cc1ccccc1	4.9	?	-0.2	i	0%	3.1	0.66
CCCOC(=O)CSc1nc(N)c(C#N)c(-c2ccco2)c1C#N	-21	-2.6	.	.	6%	-13	0.68
CCCCC(=O)N(C)c1c(C)nc2ccc(C(=O)N(CC)CCN(C)C)cn12	.	.	-0.8	i	.	-0.8	.
O=C(Nc1ccc2c(c1)C(=O)N(CC1CCCO1)C2=O)c1ccccc1Br (stereo unspecified)	-268	2.0	.	.	-4%	9.0	0.65
CCCCCNC(=O)C(c1cccc2ccccc12)n1c(=O)c(-c2cc3ccccc3[nH]2)nc2ccccc21 (stereo unspecified)	.	.	-20	i	.	3.7	.
CCC(=O)OCC(=O)C1(OC(=O)CC)[C@H](C)C[C@H]2[C@H]3[C@H]([C@@H](O)C[C@@]21C)[C@@]1(C)C=CC(=O)C=C1C[C@H]3Cl (stereo partly specified)	1.5	.	-2.4	i	.	-3.0	.

Additional results follow.
SMILES	UCH37 DUB inh	RanGTP-Imp inh	MLL AF4-AF9 inh	FGF22 binding	Vif TR-FRET	HNF4A DNA FP	E coli growth
CCN(CC(=O)NCc1cccs1)C(=O)/C=C/c1ccc(OC)c(OC)c1	-24	-0.1	9.7	i	-1%	-2.3	0.67
COc1cc(-c2cc(C(=O)NCc3ccco3)c3ccccc3n2)cc(OC)c1OC	-66	-0.7	1.9	i	.	5.0	0.66
CCNc1nc(NCC)nc(OCCNS(=O)(=O)c2ccccc2)n1	1.8	1.0	5.4	i	-8%	-1.2	0.67
COc1ccc(C(=O)NC(=S)Nc2ccccc2N2CCOCC2)cc1Br	2.3	2.0	6.0	i	?	4.3	0.68
COCOCCn1cc(CN2CCS(=O)(=O)N(Cc3ccc(-c4ccc(Cl)nc4)cc3)C(CC(C)C)C2=O)nn1 (stereo unspecified)	.	.	1.6	i	2%	2.2	.
CN(Cc1nc(Cc2cccc(C(F)(F)F)c2)no1)C1CC(C)(C)NC(C)(C)C1	-1.3	2.5	-1.0	i	8%	-1.9	0.68
CCC1(c2ccccc2)NC(=O)N(CC(=O)N(C)CC(=O)Nc2cccc(OC)c2)C1=O (stereo unspecified)	-1.8	.	-0.9	i	-1%	0.1	0.66
N#Cc1c(Cn2cncn2)nc(=O)n(-c2ccc(Cl)cc2)c1N	4.3	-3.3	-2.0	i	.	4.5	0.66
COc1ccccc1S(=O)(=O)N(C)C[C@H]1OCc2cn(nn2)CCCC(=O)N([C@H](C)CO)C[C@@H]1C	.	.	-0.9&1.6&-1.0	i	.	0.6	.
O=C(CSc1nnc(-c2ccco2)o1)c1ccc([N+](=O)[O-])cc1	7.8	4.3	-9.3	i	.	8.6	0.67
CCOC(=O)c1c(C)[nH]c(C(=O)OCC(=O)Nc2ccc(OCC)cc2)c1C	5.5	-2.8	.	.	-2%	6.4	0.69
C1CCC2(CC1)OCC1(CO2)COC2(CCCCC2)OC1	4.8	-0.7	.	.	-1%	-2.1	0.7
CC1CCN(CCC(=O)Nc2ccc3c(c2)OCCO3)CC1	0.1	2.5	.	.	4%	.	0.68
CC1(C(=O)Nc2cccc(NS(C)(=O)=O)c2)Cc2c(-c3ccc(C(N)=O)cc3)ccnc2O1 (stereo unspecified)	.	.	-1.9	i	.	1.4	.
NC(c1ccc(F)c(F)c1)c1nc(-c2cc(F)cc(F)c2)cs1 (stereo unspecified)	.	.	-0.7	i	.	-11	.
CCN(CC)c1ccc(/C=N/NC(=O)CNC(=O)C2COc3ccccc3O2)c(O)c1 (stereo unspecified)	.	-2.0	-1.2	.	.	2.3	.
OC[C@@H]1CN(Cc2cccs2)C[C@H](n2cnc3c(NC4CCCC4)ncnc32)O1	.	.	0.3	i	.	-2.4	.
CCOc1cc(/C=N/n2c(C)nc3ccccc3c2=O)ccc1O	.	4.5	1.0	i	.	-3.1	.
CC(C)=CCSc1nnc(CCNC(=O)OC(C)(C)C)o1	1.5	-1.2	.	.	-1%	-0.3	0.71
CCOc1ccccc1NC(=O)NCCCCc1ccccc1	3.0	-0.9	-16	i	-5%	2.1	0.71
Cc1cnc(NC(=O)/C=C/c2ccc(Br)o2)s1	-25	1.3	-1.0	i	21%	-1.9	0.72

Record cards (already shown). Values in the order: UCH37 DUB inh, RanGTP-Imp inh, MLL AF4-AF9 inh, FGF22 binding, Vif TR-FRET, HNF4A DNA FP, E coli growth
Cc1cnc(NC(=O)/C=C/c2ccc(Br)o2)s1 in the list: -25, 1.3, -1.0, i, 21%, -1.9, 0.72
C1CCC2(CC1)OCC1(CO2)COC2(CCCCC2)OC1 in the list: 4.8, -0.7, ., ., -1%, -2.1, 0.7
COc1ccc(C(=O)NC(=S)Nc2ccccc2N2CCOCC2)cc1Br in the list: 2.3, 2.0, 6.0, i, ?, 4.3, 0.68
